Screening data deposited in PubChem BioAssay by National Center for Advancing Translational Sciences (NCATS).
Six1-Eya2 inh = inhibitors of human Six1/Eya2 interaction; AlphaScreen GST-Six1/His-Eya2 binding, biochemical; stronger effect = lower value; control for the full effect not named in the record; activity change, % (test concentration not listed); 360,000 compounds, 0.56% hits; AID 651725; in the data active = activity change below about -65%; inconclusive = about -30% to -65%; inactive = above about -30%; also: % is scaled to controls: 0 for no effect and ±100 for the full control effect
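Compounds are tested against tagged Six1 and Eya2 proteins bridged by glutathione donor and nickel acceptor beads; after a one-hour incubation at 37 °C without light, AlphaScreen emission is recorded.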
TRPML1 ag = agonists of human TRPML1 channel; Q9GZU1; 410,000 compounds, 0.12% hits; TRPML1-expressing cells, Ca2+ dye fluorescence, FDSS; host cell line not named in the record; reference of the full effect not given here; activation, % (concentration not given with the values); in the data active = activation above about 50%; inconclusive = about 30% to 50%; inactive = below about 30%; also: 0% is about no effect; the text of the record puts the active cut at 80%
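Tet-induced TRPML1-DL cells, 1,500 per well, cultured overnight, were loaded with a no-wash Ca2+ dye for 45–90 min. Calcium fluorescence was recorded on the FDSS for 110 s after compound addition, before the EC80 agonist (4 uM 54-4) was added.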
TRPV1 PAM = potentiators of human vanilloid receptor 1 (TRPV1) | Q8NER1 | TRPV1-expressing cells, Fluo-8 calcium influx, capsaicin EC20 potentiation; host cell line not named in the record; control for the full effect not named in the record | potentiation, % at 8.33 µM | 320,000 compounds, 0.02% hits | AID 540277; active means potentiation above 80%; inconclusive means 30% to 80%; inactive means below 30%; also: 0% is about no effect
Target sequence (Q8NER1 whole entry, looked up): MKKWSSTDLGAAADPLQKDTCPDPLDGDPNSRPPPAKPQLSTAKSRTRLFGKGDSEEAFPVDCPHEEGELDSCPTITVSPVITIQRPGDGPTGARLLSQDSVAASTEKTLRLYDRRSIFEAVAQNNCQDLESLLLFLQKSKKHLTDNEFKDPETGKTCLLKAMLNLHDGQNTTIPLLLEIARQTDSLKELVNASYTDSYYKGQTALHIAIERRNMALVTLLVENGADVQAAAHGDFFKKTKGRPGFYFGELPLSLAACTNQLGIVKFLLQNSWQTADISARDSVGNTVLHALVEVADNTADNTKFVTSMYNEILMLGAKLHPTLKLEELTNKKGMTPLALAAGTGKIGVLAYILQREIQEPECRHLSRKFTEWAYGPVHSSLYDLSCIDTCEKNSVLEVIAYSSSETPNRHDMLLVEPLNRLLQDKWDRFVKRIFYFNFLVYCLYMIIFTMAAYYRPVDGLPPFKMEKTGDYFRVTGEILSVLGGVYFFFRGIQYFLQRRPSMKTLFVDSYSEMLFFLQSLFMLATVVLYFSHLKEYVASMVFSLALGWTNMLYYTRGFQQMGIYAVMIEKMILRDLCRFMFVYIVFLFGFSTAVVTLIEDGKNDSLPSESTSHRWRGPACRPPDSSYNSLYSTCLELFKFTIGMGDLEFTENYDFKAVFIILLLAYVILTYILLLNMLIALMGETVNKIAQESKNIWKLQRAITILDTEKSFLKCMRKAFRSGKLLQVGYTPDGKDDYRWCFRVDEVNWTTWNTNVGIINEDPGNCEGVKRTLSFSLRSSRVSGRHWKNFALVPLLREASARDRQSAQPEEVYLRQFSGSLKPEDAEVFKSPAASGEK
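TRPV1-expressing cells were cultured overnight at 35.5C and loaded with Fluo-8 calcium dye for 40 to 90 min at room temperature. After a 10 s baseline, compound was added and calcium influx was read kinetically for 3 min (ex 480/em 520 nm).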
D2 potentiator = human D2 receptor positive allosteric modulation; DiscoveRx D2 beta-arrestin cells, luminescence, 90 min; 100% = 57 uM dopamine signal; AID 624464; P14416; potentiation, % (test concentration not listed); 360,000 compounds, 0.23% hits; active = potentiation of 50% or more; inconclusive = 30% to 50%; inactive = 30% or less;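 also: compound concentration not given in the record; tested on top of an EC20 dose of dopamine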
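PathHunter D2 cells, attached overnight at 37 deg C, received compound in DMSO plus dopamine at EC20 (50 nM final) for 90 min at 37 deg C. Beta-arrestin recruitment was read as luminescence after 1 h with detection reagent at ambient temperature.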
CtBP-E1A inh = CtBP/E1A binding inhibition. activity change, % (no concentration beside the values). 340,000 compounds, 0.49% hits. AID 651724. AlphaScreen GST-E1A/His-CtBP binding, 1536-well; stronger effect = lower value; control for the full effect not named in the record; in the data active means activity change below about -65%; inconclusive means about -30% to -65%; inactive means above about -30%; also: % is scaled to controls: 0 for no effect and ±100 for the full control effect
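In 5 uL wells, 23 nL compound meets equimolar GST-E1A and His-CtBP (5X stock 125 nM each) for 2 h, 37 °C. Beads (5X, 50 ug/mL) then 1 h, 37 °C, dark.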
TRPML1 blocker = inhibitors of human TRPML1 channel; Q9GZU1; activity change, negative = inhibition, % (test concentration not listed); AID 624415; TRPML1-inducible cells, Ca2+ dye fluorescence, FDSS; stronger effect = lower value; inhibition of EC80 agonist-evoked calcium signal; 390,000 compounds, 0.02% hits; in the data active means activity change below about -50%; inconclusive means about -30% to -50%; inactive means above about -30%;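 also: stimulus is agonist 54-4 at its EC80 concentration; % is scaled to controls: 0 for no effect and ±100 for the full control effect; compound concentration not given in the record; the text of the record puts the active cut at -80%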
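TRPML1-DL cells, Tet-induced overnight (~16 h, 37 °C) at 1,500 cells/well, were loaded with Ca8 no-wash dye plus quencher for 45-90 min at room temperature. Compounds were pinned during FDSS kinetic reading; agonist 54-4 at EC80 (4 uM final) then added.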
Starred values were filed as active, the others as inactive; u = inconclusive; x = not tested or not shown.

A first look (16 entries):
structure,Six1-Eya2 inh,TRPML1 ag,TRPV1 PAM,D2 potentiator,CtBP-E1A inh,TRPML1 blocker
Cc1ccc(C(=O)N/C(=C\c2ccc(-c3ccc(Br)cc3)o2)C(=O)NC2CCS(=O)(=O)C2)cc1 (configuration not stated),7,0.2,8,-9,1,-29
O=C(NCc1ccccc1)c1onc(CS(=O)(=O)c2ccc(Cl)cc2)c1C(=O)NCc1ccccc1,-4,-0.5,-6,-3,4,-10
Cc1ccc(CN2CC(C(=O)NCC(=O)Nc3c(C)cccc3C)CC2=O)cc1 (configuration not stated),2,-0.5,-1,-9,8,-12
COc1cccc(C2NC(=O)NC(C)=C2C(=O)Nc2ccc(C)cc2)c1 (configuration not stated),4,-0.8,18,-7,9,-3
Cn1c(=O)c2sccc2n2c(CCCC(=O)NC3CCN(Cc4ccccc4)CC3)nnc12,6,-0.8,-11,2,x,15
Cc1ccc(NC(=O)Cn2cccc2)cc1C,-8,0.5,x,-7,1,5
O=C(NCCc1nc(-c2ccc(F)cc2)no1)c1ccc(F)cc1,4,-1.1,12,-13,2,9
N#Cc1cc([N+](=O)[O-])ccc1NC(=O)COC(=O)C1CC2CCCC(C1)C2=O (configuration not stated),5,0.6,1,24,-11,9
COc1ccc(C(C[N+](=O)[O-])c2c(C)cc3ccccn23)c(OC)c1 (configuration not stated),-19,4.0,6,-3,-13,10
CC1=C(C(=O)N(C(C)C)C(C)C)CC(CC(=O)NCCCN(C)C)C(=O)N1Cc1ccc(C(C)(C)C)cc1 (configuration not stated),-6,0.8,x,-8,0,x
O=C(Nc1ccccc1O)c1ccc([N+](=O)[O-])cc1,16,x,3,28,x,x
COCCCNC(=S)NCCCNc1nc2cc3c(cc2cc1C#N)OCO3,-2,0.0,5,-8,19,-7
CC(C)(C)c1ccc(C(=O)NCC(=O)NNC(=O)c2ccccc2O)cc1,7,-0.3,u,2,0,-6
Cc1cc(OCc2cc(C(=O)N(Cc3nccn3C)C(C)C)no2)cc(C)c1Cl,-5,-0.2,6,-10,-2,-5
COc1ccc(C2=NOC3(CC(=O)N(c4ccc(Cl)cc4)C3=O)C2)c(OC)c1 (configuration not stated),0,3.7,u,0,-3,4
COC(=O)Oc1ccc(/C=C/C(=O)OC(C)C)cc1OC(=O)OC,1,3.6,-7,26,1,46

The whole of this part, previewed entries included:
structure,Six1-Eya2 inh,TRPML1 ag,TRPV1 PAM,D2 potentiator,CtBP-E1A inh,TRPML1 blocker
Cc1ccc(C(=O)N/C(=C\c2ccc(-c3ccc(Br)cc3)o2)C(=O)NC2CCS(=O)(=O)C2)cc1 (configuration not stated),7,0.2,8,-9,1,-29
O=C(NCc1ccccc1)c1onc(CS(=O)(=O)c2ccc(Cl)cc2)c1C(=O)NCc1ccccc1,-4,-0.5,-6,-3,4,-10
Cc1ccc(CN2CC(C(=O)NCC(=O)Nc3c(C)cccc3C)CC2=O)cc1 (configuration not stated),2,-0.5,-1,-9,8,-12
COc1cccc(C2NC(=O)NC(C)=C2C(=O)Nc2ccc(C)cc2)c1 (configuration not stated),4,-0.8,18,-7,9,-3
Cn1c(=O)c2sccc2n2c(CCCC(=O)NC3CCN(Cc4ccccc4)CC3)nnc12,6,-0.8,-11,2,x,15
Cc1ccc(NC(=O)Cn2cccc2)cc1C,-8,0.5,x,-7,1,5
O=C(NCCc1nc(-c2ccc(F)cc2)no1)c1ccc(F)cc1,4,-1.1,12,-13,2,9
N#Cc1cc([N+](=O)[O-])ccc1NC(=O)COC(=O)C1CC2CCCC(C1)C2=O (configuration not stated),5,0.6,1,24,-11,9
COc1ccc(C(C[N+](=O)[O-])c2c(C)cc3ccccn23)c(OC)c1 (configuration not stated),-19,4.0,6,-3,-13,10
CC1=C(C(=O)N(C(C)C)C(C)C)CC(CC(=O)NCCCN(C)C)C(=O)N1Cc1ccc(C(C)(C)C)cc1 (configuration not stated),-6,0.8,x,-8,0,x
O=C(Nc1ccccc1O)c1ccc([N+](=O)[O-])cc1,16,x,3,28,x,x
COCCCNC(=S)NCCCNc1nc2cc3c(cc2cc1C#N)OCO3,-2,0.0,5,-8,19,-7
CC(C)(C)c1ccc(C(=O)NCC(=O)NNC(=O)c2ccccc2O)cc1,7,-0.3,u,2,0,-6
Cc1cc(OCc2cc(C(=O)N(Cc3nccn3C)C(C)C)no2)cc(C)c1Cl,-5,-0.2,6,-10,-2,-5
COc1ccc(C2=NOC3(CC(=O)N(c4ccc(Cl)cc4)C3=O)C2)c(OC)c1 (configuration not stated),0,3.7,u,0,-3,4
COC(=O)Oc1ccc(/C=C/C(=O)OC(C)C)cc1OC(=O)OC,1,3.6,-7,26,1,46
CCCNC(=O)c1cc(S(=O)(=O)N2CCC3(CC2)OCCO3)ccc1F,1,-0.1,x,-4,0,8
CCOc1ccc(NC(=O)CN2CCN(C(=O)c3ccco3)CC2)cc1S(=O)(=O)N1CCCC1,0,0.0,-5,-18,19,31
CCOc1ccc(OCC(=O)OC(C)C(=O)Nc2ccc(Cl)cn2)cc1 (configuration not stated),7,-0.1,-8,27,-9,10
Cc1ccc(OCCN2CCC2(C)C(=O)Nc2ccc3c(c2)OCCO3)cc1 (configuration not stated),-3,-0.9,x,-9,-3,x
CC1(C(=O)NS(=O)(=O)c2ccccc2Cl)CCN1C(=O)Cc1ccccc1 (configuration not stated),8,-0.1,x,-3,9,x
CCOC(=O)C1(Cc2cccc(OC)c2)CCCN(Cc2cc(OC)c(O)c(OC)c2)C1 (configuration not stated),-20,-0.1,2,-3,-15,-6
Cc1cc(-c2ccccc2N)n[nH]1,3,-0.1,20,-8,-3,31
CCCOc1ccc(C(=O)CCC(=O)NNC(=O)c2cccs2)cc1,1,0.7,6,0,4,0
CC(C)(C)OC(=O)NCc1ccc(NC(=O)c2nc[nH]c2C(=O)NCCCCCCNC(=O)c2[nH]cnc2C(=O)Nc2ccc(CNC(=O)OC(C)(C)C)cc2)cc1,1,-0.7,x,-8,4,7
Cc1cc(C)c2sc(NC(=O)CN3C(=O)CCC3=O)nc2c1,-1,x,23,-6,-5,x
Nc1n[nH]c2cc(=O)n(-c3ccc(Cl)cc3)nc12,u,2.5,4,-6,x,-4
O=C(NNc1ccc(C(F)(F)F)cc1[N+](=O)[O-])c1ccc(NS(=O)(=O)c2ccc(F)cc2)cc1,u,0.8,-6,-28,-14,-12
Fc1ccc(C(c2nnnn2C2CCCCC2)N2CCCC2)cc1 (configuration not stated),-5,-0.3,2,-6,x,-6
CC1=C(C(=O)OCc2ccccc2)C(c2ccc(Cl)cc2)NC(=O)N1CCCCCC(=O)O (configuration not stated),-2,-0.3,1,-29,-6,10
CCC(C)[C@H](NC(=O)CCn1nnc2ccccc2c1=O)C(=O)O (some centres not stated),5,0.7,11,0,5,-4
O=C(NCCc1c[nH]c2ccccc12)c1cnc2n(c1=O)CCS2,0,-0.3,-7,-3,5,-15
CC(C)=CC(=O)OCC(=O)Nc1nc(C)c(Cl)cc1Cl,-6,3.2,-13,-11,-10,9
CCC(=O)c1ccccc1OCCCN1C(=O)NC(C)(C)C1=O,4,1.9,-20,-2,8,-13
CNC(=S)N/N=C/c1ccco1,1,x,2,-1,6,x
CC(C)C1NC(=S)N(C2CCCCC2)C1=O (configuration not stated),8,-0.1,-2,-18,1,-26
CC(C(=O)NCc1ccccn1)N1C(=O)c2ccccc2C1=O (configuration not stated),4,-0.1,-2,-8,8,8
O=C(Nc1ccccc1)c1nc[nH]c1C(=O)Nc1ccccc1F,1,-0.3,x,0,-18,-1
COc1ccc(CC(=O)NCc2ccco2)cc1OC,4,0.6,-5,-11,6,-11
CCc1ccc([C@H]2[C@@H]3C(=O)C[C@@H]4C(=O)N(Cc5ccccc5)C(=O)[C@@H]4[C@@H]3CN2S(=O)(=O)c2ccc(C)cc2)cc1,-3,0.0,x,27,2,x
Cc1[nH]c2c(Cl)cccc2c(=O)c1CN1CCCCCC1,4,x,u,-23,0,x
COc1ccc(CCNC(=O)CN2C(=O)NC3(CCCCC3)C2=O)cc1,-4,-0.3,x,5,7,12
CCCc1cc(=O)[nH]c2nnc(SCC(=O)NCc3ccc4c(c3)OCO4)n12,-2,-0.2,-2,-11,12,14
Cc1cccc(CN2CCN(c3nc4nonc4nc3NC3CC3)CC2)c1,-7,-1.0,-13,-2,-5,-1
O=C(c1cccc(N2C(=O)C3CC=CCC3C2=O)c1)N1CCCc2ccccc21 (configuration not stated),-4,-1.3,22,-5,-5,-16
COc1ccc(/C=C/C(=O)Nc2cccc(S(=O)(=O)NC3=NCCCCC3)c2)cc1OC,u,0.6,4,-11,u,-2
COc1cc(C(C)=O)ccc1OCC(=O)NC(=O)Nc1ccc(C)cc1C,-5,2.7,x,0,11,36
O=C(NN1C(=O)C2C3C=CC(C4CC34)C2C1=O)c1cccc(Br)c1 (configuration not stated),1,1.0,-8,-17,-4,-2
N#Cc1ccc(NC(=O)Nc2ccc(Cl)cc2)cc1,1,0.4,3,13,8,2
CC1CCN(CCn2c(=S)[nH]c3cc4c(cc3c2=O)OCO4)CC1,6,0.3,-33,-27,-1,-20
Cc1ccc(N(CC(=O)Nc2cc(Cl)ccc2Oc2ccccc2)S(C)(=O)=O)cc1C,-11,-0.1,2,-4,6,-14
CC(=O)OCC1OC(OCc2cn(C[C@H]3CC[C@H](Cn4cc(COC5OC(COC(C)=O)C(OC(C)=O)C(OC(C)=O)C5OC(C)=O)nn4)O3)nn2)C(OC(C)=O)C(OC(C)=O)C1OC(C)=O (some centres not stated),7,-0.7,-6,-4,8,-1
O=C(Nc1cccc(C(F)(F)F)c1)N1CCC(c2nc(-c3ccc(F)cc3)no2)CC1,0,2.0,-26,-8,11,6
Cc1cn(CC(=O)N[C@H](C)c2cccc3ccccc23)c(=O)[nH]c1=O,7,-0.4,x,x,8,2
CSCCC(=O)Nc1cc(S(=O)(=O)N2CCOCC2)ccc1N1CCN(C)CC1,7,1.5,-6,-2,-1,28
CC[n+]1c(/C=C/N(C)c2ccccc2)n(-c2ccccc2)c2ccc(-c3nc4ccccc4s3)cc21,-18,-1.1,5,-2,-10,7

Among those listed so far, these contain a CF3 group.
structure,Six1-Eya2 inh,TRPML1 ag,TRPV1 PAM,D2 potentiator,CtBP-E1A inh,TRPML1 blocker
O=C(NNc1ccc(C(F)(F)F)cc1[N+](=O)[O-])c1ccc(NS(=O)(=O)c2ccc(F)cc2)cc1,u,0.8,-6,-28,-14,-12
O=C(Nc1cccc(C(F)(F)F)c1)N1CCC(c2nc(-c3ccc(F)cc3)no2)CC1,0,2.0,-26,-8,11,6
